Compound activity (PubChem)
Sa RN4220 lethal = growth inhibition of S. aureus RN4220, primary screen, OD600. inhibition, % (test concentration not listed). 16 h. 330,000 compounds, 0.33% hits;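 active = z-score of -3 or lower and OD600 up to 0.18 on both plates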;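 also: plate controls were untreated cells for no effect and reference antibiotic for full effect; stock transfer was 100 nL into about 80 µL; one replicate is shown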
Mtb hypoxia rep = PubChem AID 1159583; M. tuberculosis hypoxia-regulated fluorescent reporter, fluorescence; fluorescence inhibition, % (concentration not given with the values); 300,000 compounds, 0.1% hits;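 active = 35 to 45% if threefold the growth effect, above 45% if 1.5-fold the growth effect; inactive = the rest, general growth blockers included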;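 also: wells of about 50 µL received 100 nL stock; 0% = vehicle wells and 100% = reference inhibitor wells; whole bacteria with a GFP reporter of the hypoxia response; strong numbers were not always called active; many hits fall short of the cut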
PrP UTR inh = inhibition of PrP 5' UTR reporter expression | 340,000 compounds, 0.35% hits | inhibition, % (test concentration not listed) | cell-based PrP 5' UTR mRNA reporter, plate reader;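 active = every replicate at 50% or more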;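 also: 0 = median of the neutral control wells; tested in H4 reporter cells; numbers are from one replicate; inactives centre near -14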
Sa ugtP lethal = growth inhibition of ugtP-null S. aureus, primary screen, RN4220 ugtP deletion, OD600 | 16 h; some inactives read as strong as hits | growth inhibition, % (test concentration not listed) | 330,000 compounds, 0.54% hits | AID 1259309, 2017;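 active = z-score under -3 and OD600 up to 0.15 on both plates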;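 also: plate controls were untreated wells for no effect and antibiotic for full effect; wells of about 80 µL received 100 nL stock; the first replicate is given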
Autofluor counter = compound fluorescence in toxin protease inhibitor counterscreen; fluorescence intensity (no concentration beside the values); compound autofluorescence counterscreen, microsphere flow cytometry; stronger effect = higher value; AID 624483; 360,000 compounds, 3.1% hits;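 active = at least 3 SD above the mean of all compounds, about 16000 in these data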;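 also: 100 nL of 1 mM stock went into each well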
BJeLR lethal = MLPCN primary cell-based screen for lethality selective to Ras in HRASV12 cells; BJeLR (HRASV12) viability, CellTiter-Glo ATP luminescence, 48 h; reference of the scale not given here; inhibition, % (concentration not given with the values); 300,000 compounds, 0.17% hits;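 active = replicate mean above 50%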;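 also: 50 nL library stock added to about 25 µL; numbers are from one replicate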
Mtb hypoxia rep growth = also measured in Mtb hypoxia rep; calls as there; growth inhibition, %; measured here: M. tuberculosis growth (absorbance);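 0% = vehicle and 100% = reference antibiotic; read after six days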
An asterisk follows results filed as active; . = no result given.

entry | Compound | Sa RN4220 lethal | Mtb hypoxia rep | Mtb hypoxia rep growth | PrP UTR inh
1 | COc1cc(C=NNC(=O)CSCc2ccc([N+](=O)[O-])cc2)cc(OC)c1OC | 0.5 | 2 | -3 | .
2 | CCCc1c(C(=O)N/N=C/c2c(OC)ccc3ccccc23)nnn1-c1nonc1N | . | . | . | 7
3 | COCc1ccc(C(=O)N2CCCC(N3CCN(c4ccc(F)cc4)CC3)C2)o1 (stereo not given) | -0.6 | 2 | 0 | -13
4 | CC(C)NS(=O)(=O)c1ccc(NC(=S)NC(=O)c2cccc([N+](=O)[O-])c2)cc1 | 7.8 | -2 | 4 | -25
5 | COCCOC(=O)C1=C(C)OC(N)=C(C(=O)OC)C12C(=O)Nc1ccccc12 (stereo not given) | 5.0 | 15 | 11 | -13
6 | CN(C(=O)CSc1nnc(-c2n[nH]c3ccccc23)o1)c1ccccc1 | 3.6 | -2 | 2 | -10
7 | Cc1ccc(NC(=O)NC(=O)CN2CCCC2c2ccc3c(c2)OCCO3)cc1C (stereo not given) | -6.6 | -13 | -7 | -11
8 | N#Cc1c(N)c(C(=O)c2ccccc2)n2ccccc12 | 6.5 | 11 | 8 | -12

entry | Sa ugtP lethal | Autofluor counter | BJeLR lethal
1 | 9 | . | .
2 | . | 4854 | 5
3 | 7 | 6171 | -5
4 | 5 | 7011 | 7
5 | 3 | 4306 | -9
6 | -1 | 2400 | -12
7 | 16 | 4360 | .
8 | 2 | 4045 | -5

Additional entries:
entry | Compound | Sa RN4220 lethal | Mtb hypoxia rep | Mtb hypoxia rep growth | PrP UTR inh
9 | CCCCc1ncc(CN2CCN(Cc3ccc(C)cc3)C(CCO)C2)[nH]1 (stereo not given) | 2.2 | 14 | 1 | -6
10 | COC(=O)C1=C(c2ccc(S(C)(=O)=O)cc2)CC2CCC1N2C(=O)NC1CCCCC1 (stereo not given) | 2.1 | 4 | 12 | .
11 | O=C(Cc1ccc([N+](=O)[O-])cc1)Nc1ccc(Cl)cc1 | 2.7 | 9 | 20 | -7
12 | CCCn1cccc(C(=O)Nc2ccc(OC)cc2)c1=O | 0.8 | -2 | -1 | -15
13 | CC/C(=N\Nc1ccccc1)c1c(O)n(C)c(=O)n(C)c1=O | 3.2 | 6 | 13 | -3
14 | COc1ccc(C=Nn2cnnc2SCc2ccc(OC)cc2)cc1 | 8.2 | -1 | 5 | .
15 | NS(=O)(=O)c1ccc(CNC(=O)CNC(=O)c2ccc(Br)o2)cc1 | -2.2 | -2 | -5 | -19
16 | CCCNC(=O)c1cc2ccccc2c(=O)o1 | 5.7 | 11 | 8 | -22

entry | Sa ugtP lethal | Autofluor counter | BJeLR lethal
9 | 4 | 3497 | 5
10 | -5 | . | .
11 | 3 | 3932 | -10
12 | 3 | 4178 | -13
13 | 7 | 2044 | 5
14 | -7 | . | .
15 | 11 | 3756 | -2
16 | 6 | 10415 | -3

Further records:
entry | Compound | Sa RN4220 lethal | Mtb hypoxia rep | Mtb hypoxia rep growth | PrP UTR inh
17 | O=C(c1ccc(F)cc1)N1CCC(N2CCOCC2)CC1 | -1.1 | . | . | 4
18 | CCn1c(SCC(=O)N(C)CCC#N)nc2cc(S(=O)(=O)N3CCOCC3)ccc21 | -1.0 | -4 | 2 | -8
19 | CCC(=O)N1CCN(c2ccc(NC(=S)NC(=O)C(C)C)cc2)CC1 | -2.4 | . | . | -17
20 | O=C1c2ccncc2C(=O)N1CNc1ccc(Cl)cc1 | -1.2 | 7 | 3 | -25
21 | O=S(=O)(c1cccc(Cl)c1Cl)N1CCN(C(=S)NCCCN2CCOCC2)CC1 | 0.0 | 12 | 0 | -12
22 | COc1ccc(C(C(=O)NC(C)(C)C)N(C(=O)CCC(=O)Nc2cc(C)on2)c2ccc3c(c2)OCCO3)cc1 (stereo not given) | -2.6 | -11 | 12 | -24
23 | O=C1CCc2cc(S(=O)(=O)N3CCC(C(=O)NCCC4=CCCCC4)CC3)ccc2N1 | 3.8 | . | . | -5
24 | O=C1C2C3C=CC(C4CC34)C2C(=O)N1N=Cc1ccc([N+](=O)[O-])s1 (stereo not given) | 4.7 | 5 | 8 | .

entry | Sa ugtP lethal | Autofluor counter | BJeLR lethal
17 | 3 | 4684 | 1
18 | -4 | . | -9
19 | 9 | 4480 | 29
20 | 9 | 2004 | 8
21 | -1 | 4728 | -6
22 | 1 | 5941 | 0
23 | 5 | 5561 | .
24 | 3 | . | .

The list continues:
entry | Compound | Sa RN4220 lethal | Mtb hypoxia rep | Mtb hypoxia rep growth | PrP UTR inh
25 | CC(=O)N1CCC2(CC1)C(C#N)=C(N)Oc1n[nH]c(C)c12 | 4.2 | 10 | 8 | -6
26 | CC1Cc2ccccc2N1CC(=O)NC(=O)NC(C)(C)C (stereo not given) | 2.5 | 17 | 2 | -6
27 | CNC(=S)Nc1ccc(OC(F)(F)F)cc1 | 0.9 | 13 | 7 | -18
28 | Nc1nc(NC(=O)c2ccccc2)nn1-c1ccccc1 | 5.8 | 4 | 0 | -38
29 | CCOc1ccccc1C1c2cc3c(cc2OC(C)(N2CCCC2)C1C)OCO3 (stereo not given) | -1.8 | -8 | 5 | -60
30 | O=C(NCc1ccc(OC(F)(F)F)cc1)C1CCC(=O)N(C2CC2)C1 (stereo not given) | 3.8 | 2 | -6 | -8
31 | CC(C)C(NC(=O)OCc1ccccc1)C(=O)OCC(=O)NC1CC1 (stereo not given) | -1.0 | 0 | -10 | -39
32 | CCc1nnc(NC(=O)c2c(C)nn(-c3ccccc3)c2Cl)s1 | -1.6 | 0 | 13 | -15

entry | Sa ugtP lethal | Autofluor counter | BJeLR lethal
25 | 7 | 3217 | -1
26 | 5 | 4206 | -1
27 | -23 | 4108 | 0
28 | 6 | 2353 | 2
29 | -3 | 5097 | 2
30 | 11 | 4591 | 13
31 | 1 | 4764 | -4
32 | -8 | 4483 | -3

Later entries
entry | Compound | Sa RN4220 lethal | Mtb hypoxia rep | Mtb hypoxia rep growth | PrP UTR inh
33 | COCC(C)NCc1ccc(OC)c(Br)c1 (stereo not given) | 3.2 | 2 | 8 | -5
34 | COc1ccccc1NS(=O)(=O)c1cccc(C(=O)N2CCN(C(=O)c3ccco3)CC2)c1 | 6.1 | 8 | 1 | -16
35 | CC(=O)Nc1ccc2c(c1)CCc1ccccc1-2 | -1.0 | 9 | 9 | -2
36 | CCN1C(=O)C(=O)N(CC(=O)N2CCC(C)Sc3ccccc32)C1=O (stereo not given) | 5.4 | 4 | 7 | -14
37 | Cc1ccc(S(=O)(=O)N2CCC(=O)N(C(COCc3ccc(Cl)c(Cl)c3)Cc3ccccc3)CC2)cc1 (stereo not given) | 2.2 | 0 | 3 | .
38 | Cc1cccc(NC(=O)CCC(=O)N/N=C/c2cccnc2)c1 | . | . | . | -5
39 | O=C(CCCN1C(=O)c2ccccc2C1=O)NCCC1=CCCCC1 | 2.6 | 12 | 7 | -2
40 | Cc1[nH]c2c(Cl)cccc2c1CCNC(=O)C1CCCCC1C(=O)OCC(F)(F)F (stereo not given) | 3.4 | 10 | 3 | -1

entry | Sa ugtP lethal | Autofluor counter | BJeLR lethal
33 | 7 | 4449 | 4
34 | 1 | 4037 | .
35 | 3 | 3274 | 4
36 | 3 | 3455 | .
37 | 15 | . | -4
38 | . | 5467 | -15
39 | 2 | 15592 | 8
40 | -9 | 9211 | 7

(next part)
entry | Compound | Sa RN4220 lethal | Mtb hypoxia rep | Mtb hypoxia rep growth | PrP UTR inh
41 | O=C(Nc1ccccc1[N+](=O)[O-])c1cccnc1Cl | 7.5 | 5 | -3 | -12
42 | CCc1nc(C#N)c(N2CCOCC2)o1 | 2.5 | 11 | 2 | -11
43 | CCOC(=O)c1cccc(NC(=O)CSc2nnc(CNc3ccc(C)cc3)n2CC)c1 | 3.0 | 6 | 2 | -10
44 | CCOC(=O)c1nn(-c2ccccc2C)c2nc(Nc3ccccc3)cc(=O)n12 | 4.2 | 0 | 3 | -17
45 | CN1CCN(CC#CC(C)(O)C2CC3C=CC2C3)CC1 (stereo not given) | 4.1 | 0 | 9 | -11
46 | NC(=O)CSc1oc(-c2ccco2)nc1S(=O)(=O)c1ccc(Br)cc1 | 3.4 | -2 | -2 | -25
47 | CCOC(=O)Cc1nnc(-c2ccccc2)o1 | 3.1 | -4 | 8 | -2
48 | CCOC(=O)c1c(C)[nH]c(C2=NNC(=NC3CC3)SC2)c1C | -1.4 | 5 | 8 | 71*

entry | Sa ugtP lethal | Autofluor counter | BJeLR lethal
41 | 4 | 8191 | 1
42 | 11 | 2600 | 8
43 | -2 | 15396 | 0
44 | 1 | 2075 | 5
45 | 2 | 3627 | -1
46 | 2 | 3667 | 0
47 | -20 | 6516 | -6
48 | 2 | 3425 | 1

Next part
entry | Compound | Sa RN4220 lethal | Mtb hypoxia rep | Mtb hypoxia rep growth | PrP UTR inh
49 | Cc1cccnc1NC(=O)c1ccco1 | 2.8 | 9 | 0 | -14
50 | CC(C)Oc1ccc(C(=O)C(=Cc2cccs2)c2nc3ccccc3o2)cc1 | -2.3 | 7 | 8 | .
51 | CCOc1ccccc1NC1=CC(=O)CC(c2ccccc2)C1 (stereo not given) | -1.4 | . | . | -28
52 | Cc1ccc(N(CC(=O)NC2CCCC2)C(=O)CCC(=O)Nc2nccs2)c(C)c1 | 4.3 | 6 | 1 | -4
53 | O=C(NCCCN1CCC(Cc2ccccc2)CC1)C1CCN(S(=O)(=O)N2CCOCC2)CC1 | -10 | -1 | 9 | -23
54 | CCCc1nn(C(=O)c2ccccc2)c2c1C(=O)CC(C)(C)C2 | 5.4 | 19 | 5 | -22
55 | CN(c1ccccc1C(=O)O)S(=O)(=O)c1ccc2c3c(cccc13)C(=O)N2 | -5.7 | 6 | 10 | -24
56 | COc1ccc2c3c1OC1C(O)C=CC4C(C2)[N+](C)(C)CCC341 (stereo not given) | 2.1 | 4 | 3 | -9

entry | Sa ugtP lethal | Autofluor counter | BJeLR lethal
49 | 14 | 5426 | .
50 | 29 | . | .
51 | -3 | 5021 | 2
52 | 10 | 5876 | -4
53 | -6 | 4471 | .
54 | 9 | 5975 | 1
55 | -9 | 3386 | .
56 | 0 | 3420 | -14

Of the compounds above, these have two or more sulfur atoms.
entry | Compound | Sa RN4220 lethal | Mtb hypoxia rep | Mtb hypoxia rep growth | PrP UTR inh
4 | CC(C)NS(=O)(=O)c1ccc(NC(=S)NC(=O)c2cccc([N+](=O)[O-])c2)cc1 | 7.8 | -2 | 4 | -25
18 | CCn1c(SCC(=O)N(C)CCC#N)nc2cc(S(=O)(=O)N3CCOCC3)ccc21 | -1.0 | -4 | 2 | -8
21 | O=S(=O)(c1cccc(Cl)c1Cl)N1CCN(C(=S)NCCCN2CCOCC2)CC1 | 0.0 | 12 | 0 | -12
46 | NC(=O)CSc1oc(-c2ccco2)nc1S(=O)(=O)c1ccc(Br)cc1 | 3.4 | -2 | -2 | -25

entry | Sa ugtP lethal | Autofluor counter | BJeLR lethal
4 | 5 | 7011 | 7
18 | -4 | . | -9
21 | -1 | 4728 | -6
46 | 2 | 3667 | 0

The list continues:
entry | Compound | Sa RN4220 lethal | Mtb hypoxia rep | Mtb hypoxia rep growth | PrP UTR inh
57 | Cc1ccc(C=Nn2c(C3CCCCC3)n[nH]c2=S)s1 | 5.2 | 7 | 8 | .
58 | COC(=O)c1nn(-c2ccc(OC)cc2)ccc1=O | 2.4 | 4 | -2 | 2
59 | COCc1nc2ccccc2n1CCOc1ccccc1OC | 1.9 | 9 | 16 | -9
60 | COc1ccc(NC(=O)N2CCc3ccccc32)cc1 | 2.5 | . | . | -119
61 | COc1cc(C(=O)NCCC(=O)NCCCN2CCCCC2)cc(OC)c1OC | 3.2 | -3 | 4 | -6
62 | CCc1cccc2c(SCC(=O)NCC3CCCO3)nc(-c3ccc(F)cc3)nc12 (stereo not given) | 8.7 | 16 | 4 | -6
63 | CC1CN(C(=O)CCC(=O)NCc2ccc(F)cc2)c2ccccc2S1 (stereo not given) | 5.3 | 7 | 5 | 3
64 | CN(C(=O)c1cnccn1)c1nnc(-c2cnccn2)s1 | -1.3 | . | . | -18
65 | COc1ccc(OC)c(CN2CCCC(CO)C2)c1 (stereo not given) | -4.0 | -8 | 3 | -24
66 | CC1CCC(NC(=O)CN2C(=O)COc3ccc(S(=O)(=O)N4CCCC4)cc32)CC1 (stereo not given) | 2.7 | 10 | 10 | .

entry | Sa ugtP lethal | Autofluor counter | BJeLR lethal
57 | -6 | . | .
58 | 2 | 3663 | -9
59 | 0 | 4246 | -24
60 | 7 | 3141 | 16
61 | 0 | 25617* | 9
62 | 7 | 8187 | -2
63 | -1 | 5162 | 4
64 | 3 | 3067 | -2
65 | -7 | 12209 | -4
66 | 5 | . | 0

Rows were taken by chance; about 4% have a hit in one of these screens.
